eIF4H inh = human eIF4H binding inhibitors, primary screen, translation initiation inhibitor project, biochemical, uHTS, fluorescence polarization | eIF4H fluorescence polarization binding assay | inhibition, % at 35 µM | 0.94% of 290,000 active;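 active = 50% or more with normal probe brightness, or confirmed in later tests; about a fifth of its hits are not listed in these tables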;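 note: calls also rest on retests at 20 µM and on dose response follow-up; 0% = protein and probe with vehicle and 100% = probe without protein; strong numbers were not always called active; many hits fall short of the cut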
PABP FP inh = PABP poly(A) RNA binding inhibitors, primary screen, biochemical, fluorescence polarization, uHTS | Polyadenylate-binding protein 1 (Homo sapiens), P11940 | inhibition, % at 35 µM | 1% of 290,000 active;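 active = 50% or more with normal probe brightness, or confirmed in later tests; about a fifth of its hits are not listed in these tables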;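 note: calls also rest on retests at 20 µM and on dose response follow-up; controls were probe without protein and protein plus probe with vehicle; some compounds called inactive have numbers as strong as hits; many hits fall short of the cut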
Target sequence (P11940 whole entry, looked up): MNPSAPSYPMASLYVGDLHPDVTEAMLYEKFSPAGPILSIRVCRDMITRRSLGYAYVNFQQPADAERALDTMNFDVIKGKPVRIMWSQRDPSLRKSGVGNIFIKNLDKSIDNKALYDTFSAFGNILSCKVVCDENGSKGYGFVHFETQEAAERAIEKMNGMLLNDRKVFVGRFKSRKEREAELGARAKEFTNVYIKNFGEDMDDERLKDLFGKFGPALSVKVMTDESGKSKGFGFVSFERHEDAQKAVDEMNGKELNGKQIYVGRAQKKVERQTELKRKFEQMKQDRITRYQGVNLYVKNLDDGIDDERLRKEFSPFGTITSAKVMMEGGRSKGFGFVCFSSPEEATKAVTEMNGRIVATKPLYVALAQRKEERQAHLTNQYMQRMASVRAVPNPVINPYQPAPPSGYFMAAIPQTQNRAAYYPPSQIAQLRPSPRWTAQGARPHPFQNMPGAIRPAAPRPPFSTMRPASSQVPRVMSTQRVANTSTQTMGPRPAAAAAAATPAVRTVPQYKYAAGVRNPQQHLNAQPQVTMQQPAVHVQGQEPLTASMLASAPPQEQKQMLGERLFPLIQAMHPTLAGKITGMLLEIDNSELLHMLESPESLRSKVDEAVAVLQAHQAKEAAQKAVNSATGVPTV
MT1-MMP act inh = blockers of MT1-MMP proenzyme processing, primary screen, HT1080 RFP-PRO-GFP cells, GFP/RFP fluorescence; Matrix metalloproteinase-14 (Homo sapiens), P50281; GFP/RFP ratio fluorescence, overnight; percent of plate control window, DMSO zero; GFP/RFP ratio change, % at 20 µM; 0.061% of 360,000 active;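 active = GFP/RFP ratio change of at least 30% with cell ATP level not reduced by more than half and red fluorescence within 50% of control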; note: strong numbers were not always called active
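Assay system – RFP-PRO-GFP reporter HT1080 cells · Compound dosing – single dose of 20 µM compound, 1% DMSO final · Incubation – overnight compound exposure at 37 °C · Measure – GFP/RFP fluorescence ratio · Benchmarks – DMSO wells and RFP-L50D-GFP cells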
CSC inhib = cancer stem cell viability inhibitors, primary screen, luminescence; inhibition, % at 7.5 µM; cancer stem cell-like cells viability; 1.1% of 300,000 active;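 active = mean at 75% or more and at least half the replicates too; tested in HMLE shEcad cells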;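 note: 0% = median of negative and 100% = median of positive control wells; the first replicate is given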
UUG fidelity = modulators of yeast start codon fidelity, primary screen, whole organism, S. cerevisiae, single point, plate reader; S. cerevisiae UUG-firefly luciferase reporter, luminescence/redox ratio; activity score, % at 18.7 µM; 0.13% of 350,000 active;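 active = replicate mean at a twofold rise or more, about +100% in these data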;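 note: firefly luciferase made from a UUG start codon reports start codon fidelity; reporter light over untreated wells divided by growth signal over untreated wells; some hits fall short of that in this replicate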
Env fusion inh = inhibitors of HIV-1 Env-driven cell-cell fusion, primary screen, HeLa-JRFL effector, CEM21 target cells, luciferase; inhibition, % at 12.3 µM; 1.1% of 360,000 active; AID 651610, 2012;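 active = mean replicate inhibition score of at least 50 and every replicate individually at or above 50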;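 note: 0% = plate neutral controls and 100% = maraviroc near 300 nM; one replicate is shown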
Rce1 inhib = yeast Rce1p protease inhibitors, primary screen, biochemical, fluorescence, cell-free homogeneous. CAAX prenyl protease 2 (Saccharomyces cerevisiae (strain ATCC 204508 / S288c)), Q03530. 0.27% of 290,000 active. yeast membranes, quenched prenylated peptide cleavage fluorescence. calls only. AID 2563, 2010;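 active = fall in fluorescence gain of 50% or more versus controls, with final raw signal at or below 3038400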;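 note: plate controls were neutral control wells for no effect and wells lacking membranes for full effect; tested at 10 µM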
eIF4H inh retest = second read-out of eIF4H inh, no call of its own (marks repeat the call); inhibition, %; compound at 20 µM; confirmation average;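 mean of two retest wells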
PABP FP inh retest = second read-out of PABP FP inh, no call of its own (marks repeat the call); inhibition, %; compound at 20 µM; confirmation repeats;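 mean of two retest wells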
MT1-MMP act inh RFP = further read-out of MT1-MMP act inh, marked with its call; RFP signal change, %; measured here: RFP expression control read;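 0 = vehicle wells; hits needed this value within 50% of zero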
The depositor's hits bear a star; i = inactive; . = not tested or not shown; & = joins results of further samples. Only part of the results is shown, so the mix of outcomes need not match the whole.

SMILES | eIF4H inh | PABP FP inh | MT1-MMP act inh | MT1-MMP act inh RFP | CSC inhib | UUG fidelity | Env fusion inh | Rce1 inhib | others
O=C(O)c1ccc(S(=O)(=O)NC2CC2)cc1 | 7.6 | 7.3 | -0.1 | -2.1 | 7.8 | . | -4.9 | i
CCOCCOC(=O)c1[nH]c2c(c1C)C(=O)CC(c1cccs1)C2 (centres undefined) | 7.2 | 1.6 | . | . | 56.7 | -12.7 | -73.7 | i
C[C@H]1CN([C@@H](C)CO)C(=O)c2cccc(NC(=O)c3cnccn3)c2O[C@@H]1CN(C)C(=O)Nc1ccc2c(c1)OCO2 | . | . | -1.4 | 1.1 | -4.7 | 0.3&-1.8 | 0.3 | .
NC(=O)c1cccc2cc3ccccc3cc12 | -1.6 | -9.8 | -2.3 | -0.6 | 5.8 | . | -2.6 | i
O=C(NCCCN1CCOCC1)C1CCC(=O)N1CCc1ccccc1 (centres undefined) | 2.9 | 5.3 | -0.3 | 6.3 | -5.9 | -9.3 | -10.0 | i
O=C(NCc1ccccc1Br)c1ccco1 | 1.6 | -8.7 | 4.2 | 2.2 | -1.8 | -19.0 | -33.1 | i
O=C(NC(=S)Nc1cnc2ccccc2c1)c1ccccc1 | -3.7 | -13.5 | 3.0 | 3.4 | -12.3 | -19.4 | -45.8 | i
N/C(=N\N=C\c1cccc([N+](=O)[O-])c1)c1nonc1N | -4.7 | 3.6 | 3.3 | 0.3 | 0.7 | -18.3 | 6.1 | i
Cc1ccccc1NC(=S)N(CCN(C)C)C(C)c1cccnc1 (centres undefined) | -5.5 | -4.2 | 3.8 | 2.5 | 2.9 | -36.2 | -5.0 | i
COc1ccccc1C(=O)C1Nc2ccccc2-c2nnc(SC)nc2O1 (centres undefined) | -2.3 | -4.6 | 2.8 | 3.7 | . | -3.6 | -141.9 | .

Random excerpt: 2 compounds from above.
SMILES | eIF4H inh | PABP FP inh | MT1-MMP act inh | MT1-MMP act inh RFP | CSC inhib | UUG fidelity | Env fusion inh | Rce1 inhib | others
O=C(NCCCN1CCOCC1)C1CCC(=O)N1CCc1ccccc1 (centres undefined) | 2.9 | 5.3 | -0.3 | 6.3 | -5.9 | -9.3 | -10.0 | i
O=C(O)c1ccc(S(=O)(=O)NC2CC2)cc1 | 7.6 | 7.3 | -0.1 | -2.1 | 7.8 | . | -4.9 | i

Additional records.
SMILES | eIF4H inh | PABP FP inh | MT1-MMP act inh | MT1-MMP act inh RFP | CSC inhib | UUG fidelity | Env fusion inh | Rce1 inhib | others
CCOc1ccc(NS(=O)(=O)c2cc(Cl)ccc2OC)cc1 | 1.7 | 7.8 | -3.0 | -3.7 | -8.9 | -13.2 | . | i
CN1CCN(C2=Cc3ccccc3Sc3cc(F)c(F)cc32)CC1 | 9.1 | 11.3 | -7.0 | -2.7 | 22.0 | -0.5 | -8.1 | i
COc1ccc(C(=O)NC(=S)SCC(=O)O)cc1 | -16.7 | 4.6 | -9.2 | -4.4 | -7.8 | . | -0.4 | i
N=c1n(CCOc2ccccc2)c2ccccc2n1CCN1CCOCC1 | 0.4 | -2.5 | 1.7 | 3.2 | -2.9 | 3.4 | . | i
CC(Sc1nc(-c2ccccc2)cc(C(F)(F)F)n1)C(=O)N1CCCC1 (centres undefined) | -5.8 | -11.4 | -3.9 | -7.0 | -8.8 | -24.1 | -0.9 | i
CCOC(=O)N1CCN(c2c(NCCCN(C)c3ccccc3)c(=O)c2=O)CC1 | 5.2 | 7.3 | 1.2 | 1.3 | 7.9 | -5.3 | 3.2 | i
COC(=O)c1ccccc1NC(=O)Cc1ccccc1OC | -3.1 | -6.9 | -0.3 | 1.2 | -0.6 | -3.6 | -40.3 | i
O=C(CCCOC(=O)c1ccc(O)cc1)c1ccccc1 | . | . | 0.8 | 4.1 | 0.4 | -6.6 | 17.9 | .
C[C@H](NC(=O)c1nc[nH]c1C(=O)N1CCc2ccccc2C1)c1ccccc1 | . | . | 4.5 | -2.2 | -11.7 | 14.0 | . | .
Cc1nc2ccc(NC(=O)c3cc(S(=O)(=O)N4CCOCC4)ccc3C)cc2s1 | 1.3 | 5.4 | 9.1 | -18.7 | -8.9 | 0.4 | . | i
CCOC(=O)N/N=C(\c1ccccc1)C(O)c1ccccc1 (centres undefined) | 0.9 | 0.9 | 2.5 | -0.4 | -6.0 | . | 14.6 | i
O=C(Nc1ccc(CN2CCOCC2)cc1)c1cccs1 | -5.3 | -21.1 | 2.0 | 4.1 | . | -16.9 | -85.4 | i
C[C@@H]1CN([C@H](C)CO)C(=O)CCCn2nncc2CO[C@H]1CN(C)S(=O)(=O)c1ccccc1 | . | . | 0.1 | 4.1 | . | -12.6&-0.2 | -12.1 | .
CCCCCn1c(=O)[nH]c2cc(C(=O)NCCCN3CCC(C)CC3)ccc2c1=O | -5.2 | -11.2 | -5.5 | 0.3 | . | -1.3 | 16.9 | i
Cc1cc(=O)oc2cc(OC(C)C(=O)NC3CCCC3)ccc12 (centres undefined) | -2.9 | -6.3 | 0.5 | -0.3 | 9.3 | -12.2 | -7.8 | i
Cn1c(=NN=Cc2ccccc2OCCO)sc2ccccc21 | . | . | 3.2 | 2.0 | . | -9.3 | -41.1 | .
Cc1ccc(C)c(S(=O)(=O)NCC(=O)NCc2ccco2)c1 | -5.9 | -3.7 | -0.1 | 3.7 | -2.5 | . | 2.7 | i
CC(=O)N1CSCC1C(=O)NNS(=O)(=O)c1cccc(C(F)(F)F)c1 (centres undefined) | 8.7 | -4.9 | -3.3 | -1.3 | -6.9 | . | 11.1 | i
COc1ccccc1N1CCN(CCC(=O)Nc2cccc(Cl)c2)CC1 | -8.5 | -2.0 | 0.5 | -1.7 | 4.5 | . | 0.6 | i
COC(=O)C1=C(C(=O)OC)[C@@H]2N(Cc3ccccc3)c3ccccc3[C@@]23C[C@@H](C(=O)OC)N(C(=O)COCc2ccccc2)C3=N1 | -5.1 | 1.7 | -2.8 | 2.0 | 2.7 | -12.3 | . | i
COc1ccc(S(=O)(=O)NCc2ccncc2)cc1OC | 1.6 | 1.6 | 3.0 | -10.9 | 5.8 | . | . | i
OC[C@@H]1CN(Cc2ccc(Cl)cc2)C[C@H](n2cnc3c(NC4CCCC4)ncnc32)O1 | . | . | 6.5 | -16.3 | . | -5.8 | 27.6 | .
CCC(C)(C)NC(=O)C(c1ccc(C)cc1)N(CC1CCCO1)C(=O)CCC(=O)Nc1ccccn1 (centres undefined) | 24.3 | 4.8 | -1.0 | 3.2 | -12.3 | . | 30.5 | .
O=C(O)C(C(O)c1ccccc1)[n+]1ccccc1 (centres undefined) | . | . | 1.4 | 4.2 | -6.6 | -11.3 | -5.2 | i
CCOC(=O)CSc1cn2c(n1)CCC2 | -0.9 | 7.4 | 0.9 | 1.5 | -4.6 | . | -18.3 | i
Cc1ccc(-n2nc3c(N4CCC(C(=O)NCCc5ccco5)CC4)nnc(C)c3c2C)cc1 | . | . | -7.5 | -3.8 | -8.1 | -17.7 | 33.1 | i
O=C(CSc1nnnn1C1CCCCC1)Nc1nc2c(s1)CCCC2 | 4.0 | -4.8 | 9.7 | -7.0 | -0.7 | -14.5 | . | i
CCOC(=O)CN1C(=O)NC2(CCCc3ccccc32)C1=O (centres undefined) | 10.8 | 7.8 | -2.1 | -2.5 | . | -15.6 | 1.8 | i
COCCNC(=O)Cn1nc(C(F)(F)F)c(Br)c1C | -1.6 | 5.9 | -3.8 | 1.1 | . | -9.4 | -21.7 | i
COc1cc(NC(=O)Cc2c(C(=O)O)[nH]c3ccccc23)cc(OC)c1OC | -2.3 | 2.7 | 5.1 | 5.7 | 5.0 | -8.2 | 28.8 | i
O=C(CSc1ccccc1)N1CCN(c2ccccc2)CC1 | 10.0 | 11.6 | -0.4 | 1.1 | 2.9 | -0.1 | . | i
O=C(Nc1ccc2ccccc2c1)N1CCCN(CCOc2ccccc2)CC1 | -0.3 | 8.3 | 0.4 | 0.3 | -9.3 | . | 12.2 | i
Cc1nnnn1/C(=C\c1ccccc1)C(=O)OCC(=O)N1CC2(C)CC1CC(C)(C)C2 (centres undefined) | -8.1 | 6.0 | -24.4 | -24.1 | 11.8 | . | 24.6 | i
CCCc1nnc(SCC(=O)N2CCCCC2)n1CCCOC | -13.2 | 0.4 | 1.4 | 3.8 | -13.0 | -14.0 | -70.3 | i
COc1cccc(CNCC(O)(c2ccc(Cl)cc2)c2ccc(Cl)cc2)c1 | -0.3 | 1.1 | -8.3 | -4.0 | -9.0 | 9.6 | 23.2 | i
Cc1ccc(NC(=O)COC(=O)c2ccc(Br)o2)cc1S(=O)(=O)N1CCCCC1 | . | . | 1.8 | 4.2 | -15.2 | -7.2 | 8.2 | .
COc1ccc(C=O)cc1COc1ccc(C)cc1[N+](=O)[O-] | -13.9 | -5.0 | 4.6 | -6.1 | . | -0.9 | . | i
CCOc1ccc(-c2nc[nH]c2[N+](=O)[O-])cc1 | -6.3 | 12.6 | 0.2 | 2.1 | -9.1 | . | -22.0 | i
CC(Oc1ccc(Br)cc1)C(=O)Nc1ccc(N2CCOCC2)cc1N1CCOCC1 (centres undefined) | . | . | -6.2 | -7.6 | 0.7 | . | 15.3 | i
N#CCOc1nc(N2CCCC2)nc(N2CCCC2)n1 | 9.4 | -6.4 | 1.3 | 4.0 | -14.7 | -6.8 | 30.7 | i
Cc1ccccc1C(=O)N1CCN(c2ccc(NC(=S)NC(=O)c3ccco3)cc2)CC1 | 0.8 | 0.1 | -7.7 | -21.3 | 3.4 | -24.4 | 10.6 | i
Cc1ccc(C)c(NC(=O)Cn2c(=O)n(-c3ccc(CC(=O)NCC4CCCO4)cc3)c(=O)c3ccccc32)c1 (centres undefined) | 53.1 | -18.0 | . | . | -29.3 | . | -23.1 | i | eIF4H inh retest=-0.3;PABP FP inh retest=8.6
[N-]=[N+]=NC1CC(CO)OC1n1ccc(=O)[nH]c1=O (centres undefined) | -0.1 | 2.9 | 3.4 | 6.0 | 4.6 | -18.9 | -2.7 | i
CCN1C(=O)[C@H]2[C@@H](c3ccc(Cl)cc3)N3C(=O)CN(CCOC)C(=O)[C@@]3(Cc3ccccc3)[C@H]2C1=O | -6.8 | 3.8 | 4.3 | 5.5 | -2.8 | -6.5 | -0.4 | i
COC(=O)CCNC(=O)Cc1c(C)n(C(=O)c2ccc(Cl)cc2)c2ccc(OC)cc12 | -7.8 | 25.7 | -2.3 | -5.9 | -10.3 | -11.6 | 12.9 | i
CCCCn1nnnc1NCc1ccc(C)s1 | 4.9 | -0.8 | 3.9 | 3.1 | -7.0 | -17.3 | -29.7 | i
CC(C)(Oc1ccc(Cl)cc1)C(=O)OCC(=O)N1CCN(c2ccccc2)CC1 | . | . | -1.1 | -3.4 | -3.7 | 3.7 | -2.3 | i
Cc1ccc2cc(CCNC(=O)c3cc4ccccc4o3)c(=O)[nH]c2c1C | -5.8 | -1.1 | -0.6 | -0.7 | 1.0 | -11.1 | 16.1 | i
CN1Cc2cc(C(=O)c3ccccc3O)cnc2NC1=O | 2.8 | 11.8 | -4.6 | 3.6 | -6.7 | -6.0 | . | i
CCOC(=O)C1CCCN(C(=O)c2ccccc2SCCOC)C1 (centres undefined) | 8.4 | 7.1 | 1.2 | 3.5 | -3.8 | 0.3 | -38.5 | i

Bioassay records as filed in PubChem.
